Bioassay records: PubChem BioAssay, several laboratories
PABP FP inh – PABP poly(A) RNA binding inhibitors, primary screen, biochemical, fluorescence polarization, uHTS; Polyadenylate-binding protein 1 (Homo sapiens), P11940; inhibition, % at 35 µM; actives 1% (n = 290,000); AID 2014, 2009;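 active means 50% or more with normal probe brightness, or confirmed in later tests; inconclusive means above 50% with abnormal brightness, or retests that disagree; inactive means below 50% or failed in later tests; about a fifth of its hits are not listed in these tables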;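 further: calls also rest on retests at 20 µM and on dose response follow-up; controls were probe without protein and protein plus probe with vehicle; some compounds called inactive have numbers as strong as hits; many hits fall short of the cut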
Target sequence (P11940 whole entry, looked up): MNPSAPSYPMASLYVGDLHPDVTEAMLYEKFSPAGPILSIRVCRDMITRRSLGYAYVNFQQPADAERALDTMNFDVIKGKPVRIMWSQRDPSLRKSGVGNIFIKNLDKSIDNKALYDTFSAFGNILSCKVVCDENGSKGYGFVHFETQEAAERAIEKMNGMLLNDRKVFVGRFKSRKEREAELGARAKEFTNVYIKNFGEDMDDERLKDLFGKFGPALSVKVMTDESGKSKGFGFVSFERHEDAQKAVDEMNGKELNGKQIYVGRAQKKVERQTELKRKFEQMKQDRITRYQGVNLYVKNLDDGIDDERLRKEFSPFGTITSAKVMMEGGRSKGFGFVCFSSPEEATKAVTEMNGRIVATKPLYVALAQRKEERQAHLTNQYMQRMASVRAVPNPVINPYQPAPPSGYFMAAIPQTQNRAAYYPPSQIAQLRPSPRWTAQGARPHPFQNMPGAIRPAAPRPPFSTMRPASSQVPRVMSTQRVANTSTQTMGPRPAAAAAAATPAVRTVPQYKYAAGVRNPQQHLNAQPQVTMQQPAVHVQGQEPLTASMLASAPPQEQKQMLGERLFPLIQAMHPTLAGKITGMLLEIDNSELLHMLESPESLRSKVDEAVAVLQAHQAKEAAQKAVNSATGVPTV
Env fusion inh – inhibitors of HIV-1 Env-driven cell-cell fusion, primary screen, HeLa-JRFL effector, CEM21 target cells, luciferase; inhibition, % at 12.3 µM; actives 1.1% (n = 360,000);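 active means mean replicate inhibition score of at least 50 and every replicate individually at or above 50; inconclusive means only one of the two criteria met; inactive means mean below 50 and not all replicates reaching 50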;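 further: 0% = plate neutral controls and 100% = maraviroc near 300 nM; one replicate is shown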
MT1-MMP act inh – blockers of MT1-MMP proenzyme processing, primary screen, HT1080 RFP-PRO-GFP cells, GFP/RFP fluorescence; Matrix metalloproteinase-14 (Homo sapiens), P50281; GFP/RFP ratio fluorescence, overnight; percent of plate control window, DMSO zero; GFP/RFP ratio change, % at 20 µM; actives 0.061% (n = 360,000); AID 651647, 2012;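 active means GFP/RFP ratio change of at least 30% with cell ATP level not reduced by more than half and red fluorescence within 50% of control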; further: strong numbers were not always called active
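Assay system: HT1080 RFP-PRO-GFP cells | Dosing: 20 µM single dose, 1% DMSO | Incubation: Cells overnight before dosing, compound overnight, 37 °C, 5% CO2 | Evaluation: GFP/RFP fluorescence ratio | Control set: DMSO-only wells and HT1080 RFP-L50D-GFP cell wells as references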
eIF4H inh – human eIF4H binding inhibitors, primary screen, translation initiation inhibitor project, biochemical, uHTS, fluorescence polarization. AID 2012, 2009. actives 0.94% (n = 290,000). Eukaryotic translation initiation factor 4H (Homo sapiens), Q15056. inhibition, % at 35 µM. eIF4H fluorescence polarization binding assay;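 active means 50% or more with normal probe brightness, or confirmed in later tests; inconclusive means above 50% with abnormal brightness, or retests that disagree; inactive means below 50% or failed in later tests; about a fifth of its hits are not listed in these tables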;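 further: calls also rest on retests at 20 µM and on dose response follow-up; 0% = protein and probe with vehicle and 100% = probe without protein; strong numbers were not always called active; many hits fall short of the cut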
Rce1 inh – yeast Rce1p protease inhibitors, primary screen, biochemical, fluorescence, cell-free homogeneous | actives 0.27% (n = 290,000) | yeast membranes, quenched prenylated peptide cleavage fluorescence | CAAX prenyl protease 2 (Saccharomyces cerevisiae (strain ATCC 204508 / S288c)), Q03530 | calls only;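 active means fall in fluorescence gain of 50% or more versus controls, with final raw signal at or below 3038400; inconclusive means same 50% fall but final raw signal above 3038400; inactive means fall in fluorescence gain under 50%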;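 further: plate controls were neutral control wells for no effect and wells lacking membranes for full effect; tested at 10 µM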
Target sequence (Q03530 whole entry, looked up): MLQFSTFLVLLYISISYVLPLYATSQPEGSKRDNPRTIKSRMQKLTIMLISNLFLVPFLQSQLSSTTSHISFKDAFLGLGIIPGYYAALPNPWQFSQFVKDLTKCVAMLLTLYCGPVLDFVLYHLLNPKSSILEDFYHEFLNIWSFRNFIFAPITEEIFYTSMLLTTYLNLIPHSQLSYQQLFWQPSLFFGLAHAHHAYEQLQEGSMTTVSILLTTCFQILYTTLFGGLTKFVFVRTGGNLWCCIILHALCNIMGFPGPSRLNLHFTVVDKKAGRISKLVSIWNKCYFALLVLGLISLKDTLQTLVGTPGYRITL
Yeast UUG start – modulators of yeast start codon fidelity, primary screen, whole organism, S. cerevisiae, single point, plate reader; S. cerevisiae UUG-firefly luciferase reporter, luminescence/redox ratio; activity score, % at 18.7 µM; actives 0.13% (n = 350,000); AID 602363, 2012;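 active means replicate mean at a twofold rise or more, about +100% in these data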;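 further: firefly luciferase made from a UUG start codon reports start codon fidelity; reporter light over untreated wells divided by growth signal over untreated wells; some hits fall short of that in this replicate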
CSC inhib – cancer stem cell viability inhibitors, primary screen, luminescence; cancer stem cell-like cells viability; inhibition, % at 7.5 µM; actives 1.1% (n = 300,000);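 active means mean at 75% or more and at least half the replicates too; inconclusive means mean and replicates disagree; tested in HMLE shEcad cells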;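 further: 0% = median of negative and 100% = median of positive control wells; the first replicate is given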
MT1-MMP act inh RFP – also measured in MT1-MMP act inh; calls as there; RFP signal change, %; measured here: RFP expression control read;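 0 = vehicle wells; hits needed this value within 50% of zero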
Active calls of the source: *; i = inactive; ? = inconclusive; . = not tested or not shown.

The opening 2 compounds as a preview:
SMILES	PABP FP inh	Env fusion inh	MT1-MMP act inh	MT1-MMP act inh RFP	eIF4H inh	Rce1 inh	Yeast UUG start	CSC inhib
CCOC(=O)c1ccc(C(=O)NNC(=O)C2CC=CCC2)cc1 (configuration not stated)	.	-6	4	-1	.	i	5	16
O=C(OC1CCOC1=O)c1ccc(NS(=O)(=O)c2cccs2)cc1 (configuration not stated)	12	-6	-1	-1	5	i	0	-15

Main list, previewed entries included:
SMILES	PABP FP inh	Env fusion inh	MT1-MMP act inh	MT1-MMP act inh RFP	eIF4H inh	Rce1 inh	Yeast UUG start	CSC inhib
CCOC(=O)c1ccc(C(=O)NNC(=O)C2CC=CCC2)cc1 (configuration not stated)	.	-6	4	-1	.	i	5	16
O=C(OC1CCOC1=O)c1ccc(NS(=O)(=O)c2cccs2)cc1 (configuration not stated)	12	-6	-1	-1	5	i	0	-15
Cc1ccc(OCC(=O)NC(=S)Nc2ccc3c4c(cccc24)CC3)cc1	6	20	-2	3	-8	i	.	-3
O=C(CSc1nc2c(c(=O)n1-c1ccccc1)SCC2)NCC1CCCO1 (configuration not stated)	-1	-9	-2	-1	-6	i	.	5
COc1nc(NCCc2ccc(OC)c(OC)c2)nc(Nc2ccccc2)n1	6	-21	0	-10	-3	i	-2	17
CC(C)c1ccc(NC2CCCN(C(=O)CCN3CCCCO3)C2)cc1 (configuration not stated)	-5	9	1	0	-12	i	-3	5
CC(=O)N1CCN(c2cc(N3CCc4ccccc4C3)c(F)cc2[N+](=O)[O-])CC1	3	-8	5	-4	0	i	-3	1
Cc1sc2ncnc(OCC(=O)NCC3CCCO3)c2c1C (configuration not stated)	6	-15	-4	1	2	i	.	-2
CCOC(=O)N1CCN(c2c(NC3CCN(Cc4ccccc4)CC3)c(=O)c2=O)CC1	0	-26	-2	2	8	i	-5	-6
COCCNC(=O)Cn1cc(S(=O)(=O)N2CCN(c3ccccc3F)CC2)c2ccccc2c1=O	-10	3	2	2	-12	i	.	15
COC(=O)c1c(O)ccc(Oc2ccccc2)c1C(=O)OC	7	.	2	0	-6	i	.	.
O=C(CSc1ccc2c(c1)OCCO2)N1CCN(c2ccccc2O)CC1	.	-8	-2	-2	.	.	-3	.
NS(=O)(=O)c1ccc(NC(=S)NNC(=O)c2cccs2)cc1	2	8	1	2	-5	i	.	-6
Cc1nc2ccccc2c(=O)n1/N=C1\C(=O)N(C)c2ccccc21	-8	.	.	.	6	i	.	4
CCc1cccc(OCC2Cn3c(nc4c3c(=O)n(C)c(=O)n4C)O2)c1 (configuration not stated)	18	9	-4	-10	-8	i	3	29
O=C1CC2(CCN(C(=O)c3c(F)cccc3Cl)CC2)Oc2ccccc21	.	8	-3	-6	.	i	-19	-5
Cc1noc(/C=C/N(C)C)c1S(=O)(=O)N1CCCC(C(=O)NC2CCCCC2C)C1 (configuration not stated)	6	.	-2	2	0	i	-26	5
CCN1C(=O)[C@H]2[C@H]3CN=C(SCc4ccc(C#N)cc4)N3[C@@](C)(C(=O)OC)[C@H]2C1=O	.	10	3	4	.	.	-8	.
Fc1ccc(CNC(=S)Nc2ccccc2Cl)cc1	11	-10	1	0	-6	i	.	-3
COc1ccc(CNC(=O)NCCc2c[nH]c3ccccc23)cc1	15	-19	5	2	37	i	-8	14
O=C(NC(NC(=S)Nc1c(Cl)cccc1Cl)C(Cl)(Cl)Cl)OCc1ccccc1 (configuration not stated)	-1	11	-10	-12	-6	i	.	-3
CCC(=O)N1N=C(c2c(O)n(C)c(=O)n(C)c2=O)CC1c1ccccc1 (configuration not stated)	8	31	4	3	12	i	-39	9
Cc1ccccc1NC(=O)C(NS(=O)(=O)c1ccc2c(c1)c(=O)n(C)c(=O)n2C)c1ccccc1 (configuration not stated)	12	22	-5	5	-10	i	1	10
COc1ccc(-c2sc3cc4c(cc3c2C#Cc2ccc(N)cc2)OCO4)cc1	.	-21	0	2	.	.	-13	.
O=C1NC[C@H](c2ccccc2)N(CCc2cc(C(F)(F)F)cc(C(F)(F)F)c2)C1=O	5	-13	12	-2	4	i	10	-18

One compound at a time (already shown):
Shown for CCc1cccc(OCC2Cn3c(nc4c3c(=O)n(C)c(=O)n4C)O2)c1 (configuration not stated) : PABP FP inh: 18; Env fusion inh: 9; MT1-MMP act inh: -4; MT1-MMP act inh RFP: -10; eIF4H inh: -8; Rce1 inh: i; Yeast UUG start: 3; CSC inhib: 29
Shown for COc1ccc(CNC(=O)NCCc2c[nH]c3ccccc23)cc1 : PABP FP inh: 15; Env fusion inh: -19; MT1-MMP act inh: 5; MT1-MMP act inh RFP: 2; eIF4H inh: 37; Rce1 inh: i; Yeast UUG start: -8; CSC inhib: 14

Additional results follow:
SMILES	PABP FP inh	Env fusion inh	MT1-MMP act inh	MT1-MMP act inh RFP	eIF4H inh	Rce1 inh	Yeast UUG start	CSC inhib
COc1ccc(OC)c(NC(=O)CCCCCn2nnc3ccccc3c2=O)c1	-11	-9	3	0	-12	i	-8	3
CCOC(=O)c1[nH]c2ccc(OCC)cc2c1NC(=O)CN1CCN(c2ccccc2)CC1	-14	.	7	-7	-1	i	-43	.
CC(C)=CCC[C@](C)(O[C@@H]1O[C@H](CO[C@@H]2OC[C@H](O[C@@H]3OC[C@@H](O)[C@H](O)[C@H]3O)[C@H](O)[C@H]2O)[C@@H](O)[C@H](O)[C@H]1O)C1CC[C@]2(C)C1[C@H](O)CC1[C@@]3(C)CC[C@H](O)C(C)(C)C3[C@@H](O)C[C@]12C (some centres not stated)	.	-8	-2	1	.	.	23	-8
CC(C)(O)[C@H]1Cc2cc3ccc(=O)oc3cc2O1	6	-6	5	5	1	?	-17	-3
COc1ccc(NC(=O)C2CCCO2)cc1Cl (configuration not stated)	2	-56	1	2	-5	i	-25	-6
Cc1ccc(C(=O)N2CCC2(C)C(=O)NC(C)C)cc1 (configuration not stated)	.	-8	4	7	.	.	-18	.
O=C(CCc1ccc(S(=O)(=O)NC2CCCCC2)cc1)NCc1ccccn1	3	-6	1	6	-8	i	.	6
CC1CCC(NC(=O)C(Cc2ccccc2)n2cccc2)CC1 (configuration not stated)	-6	10	5	7	6	i	.	-5
COc1ccc(N2C(=NC(=O)C3CC3)SC3CS(=O)(=O)CC32)cc1Cl (configuration not stated)	-4	-4	-2	2	4	i	-6	-9
COC(=O)c1[nH]c2cccc(OC)c2c1NC(=O)CN(C)CC1OCCO1	-14	-85	1	5	-5	i	-3	3
COc1ccc(NS(=O)(=O)c2cc(S(C)(=O)=O)ccc2C)cc1	-10	-3	4	5	-1	i	.	-12
O=C1N(CN2CCN(c3cccc(Cl)c3)CC2)c2ccccc2C12OCCCO2	4	5	-4	2	-7	i	-9	-19
CCSc1ccc2nnc(-c3cccc(F)c3)n2n1	17	0	-15	-7	2	i	-17	-16
CCn1nc(C)c(NC(=O)CC23CC4CC(CC(C4)C2)C3)c1C	3	.	5	-8	-4	i	.	-11
Cc1ccc2nc(NCCCN3CCOCC3)c(C=NCCCN3CCOCC3)c(=O)n2c1	46	.	-6	2	36	i	-5	.
COCCCn1c(=O)c2sccc2n(Cc2cc(C(=O)OC)ccc2OC)c1=O	7	-3	2	1	-6	i	0	-5
O=C(Cc1ccccc1)NNC1CC(=O)N(c2ccc(Cl)cc2)C1=O (configuration not stated)	8	2	8	4	2	i	-5	-13
COC(=O)[C@]1(Cc2ccccc2)N[C@H](CN(C)C(=O)c2ccc(C(C)(C)C)cc2)[C@@H]2C(=O)N(Cc3ccccc3)C(=O)[C@@H]21	.	-77	-13	-20	.	.	-11	.
COCCNC(=O)C1CC(c2ccccc2C(F)(F)F)=NO1 (configuration not stated)	.	-46	-3	4	.	i	-14	-17
Cc1nc(SCc2cccnc2)[nH]c(=O)c1C	2	.	0	0	-6	i	-10	-12
CCNc1nc(SCC(=O)Nc2ccc(Cl)c(Cl)c2)nc(N2CCOCC2)n1	16	4	0	-12	3	i	-11	-7
O=C(Nc1ccc(Cl)c(Cl)c1)Nc1cc(C(=O)N2CCOCC2)ccc1N1CCCCC1	.	.	2	-3	.	i	-13	-6
CS(=O)(=O)NCc1nnc(SCc2c(F)cccc2Cl)o1	5	8	2	2	-8	i	.	5
CC#CCCCC(=O)Nc1ccc(C(=O)O)cc1	-2	-1	8	6	0	i	-7	0
Cc1ccc(NC(=O)C2CCCN2C(=O)OCc2ccccc2)c(C)c1 (configuration not stated)	-7	-6	-3	0	-3	i	-20	-7

Additional structures:
SMILES	PABP FP inh	Env fusion inh	MT1-MMP act inh	MT1-MMP act inh RFP	eIF4H inh	Rce1 inh	Yeast UUG start	CSC inhib
CCc1nnc(NC(=O)CSc2nnc(CNC(=O)c3ccccc3F)n2C)s1	7	-5	2	4	-9	i	-20	.
O=C(Oc1cccc(/C=N/Nc2nc(Nc3ccccc3)nc(N3CCOCC3)n2)c1)c1ccco1	-2	-10	2	-4	-4	i	.	37
O=C(NNC(=O)c1ccccc1OCc1ccccc1)c1ccccc1O	-4	52	-1	-3	2	i	-3	-10
Cc1onc(-c2c(Cl)cccc2Cl)c1C(=O)NCc1cccs1	0	2	-1	0	-9	i	.	.
O=C(c1cccc(C(F)(F)F)c1)N1CCCCCC1	2	-46	0	-2	5	i	-6	-5
c1ccc(OCCSc2nnnn2-c2ccccc2)cc1	3	.	-8	-5	1	i	-29	14
Cc1cc(C)nc(NC(=S)Nc2cccc(F)c2)c1	5	-25	-1	-4	-2	i	-31	6
Cc1ccc(C)c(S(=O)(=O)N2CCCCC2CCNC(=O)C(=O)NCc2ccco2)c1 (configuration not stated)	.	7	-5	-13	.	i	4	22
OCc1cn(-c2ccccc2)nc1-c1ccc(-c2nn(-c3ccccc3)cc2CO)cc1	-1	.	-5	-3	-4	i	-15	.
O=C(c1[nH]ncc1-c1cccc(Br)c1)C1CO1 (configuration not stated)	-5	0	3	2	-6	i	.	26

A draw from above in order of heavy-atom count, lowest first:
SMILES	PABP FP inh	Env fusion inh	MT1-MMP act inh	MT1-MMP act inh RFP	eIF4H inh	Rce1 inh	Yeast UUG start	CSC inhib
O=C(c1cccc(C(F)(F)F)c1)N1CCCCCC1	2	-46	0	-2	5	i	-6	-5
CCc1nnc(NC(=O)CSc2nnc(CNC(=O)c3ccccc3F)n2C)s1	7	-5	2	4	-9	i	-20	.
CCN1C(=O)[C@H]2[C@H]3CN=C(SCc4ccc(C#N)cc4)N3[C@@](C)(C(=O)OC)[C@H]2C1=O	.	10	3	4	.	.	-8	.

Fetched by structure from the entries so far, four records:
SMILES	PABP FP inh	Env fusion inh	MT1-MMP act inh	MT1-MMP act inh RFP	eIF4H inh	Rce1 inh	Yeast UUG start	CSC inhib
O=C(c1cccc(C(F)(F)F)c1)N1CCCCCC1	2	-46	0	-2	5	i	-6	-5
O=C(c1[nH]ncc1-c1cccc(Br)c1)C1CO1 (configuration not stated)	-5	0	3	2	-6	i	.	26
Cc1cc(C)nc(NC(=S)Nc2cccc(F)c2)c1	5	-25	-1	-4	-2	i	-31	6
O=C(Oc1cccc(/C=N/Nc2nc(Nc3ccccc3)nc(N3CCOCC3)n2)c1)c1ccco1	-2	-10	2	-4	-4	i	.	37
